# GALR2 ag: activates the human galanin receptor 2; O43603; GALR2-expressing cells, agonist activation read-out; activation, %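 (tested at 5 µM)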; hit rate 0.48% among 140,000;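 active = above mean plus 3 SD of all compounds, about 5% in these data, not always enough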;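 note: 0% = vehicle buffer wells and 100% = reference agonist at full effect; tested in CHO reporter cells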
# Target sequence (O43603 whole entry, looked up): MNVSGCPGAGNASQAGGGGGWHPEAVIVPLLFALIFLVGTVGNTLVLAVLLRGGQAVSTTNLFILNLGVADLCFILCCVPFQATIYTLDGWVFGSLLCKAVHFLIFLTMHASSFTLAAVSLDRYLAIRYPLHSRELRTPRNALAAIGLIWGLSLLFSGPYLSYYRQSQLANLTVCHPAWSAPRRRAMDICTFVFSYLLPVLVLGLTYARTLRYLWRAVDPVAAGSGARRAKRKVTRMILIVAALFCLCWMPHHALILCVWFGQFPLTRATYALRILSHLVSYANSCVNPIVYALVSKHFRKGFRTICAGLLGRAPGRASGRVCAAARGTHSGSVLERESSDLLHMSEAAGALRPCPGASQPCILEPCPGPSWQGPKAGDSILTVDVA
# PKD1 kinase inh: blocks activity of human protein kinase D1. PKD1 kinase fluorescence polarization assay. inhibition, %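 (about 10 µM by stock and volumes)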. hit rate 0.056% among 200,000;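 active = inhibition of 50% or more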;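 note: controls were vehicle for no effect and a reference inhibitor for full effect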
# Insulin prom inh: TRM-6 insulin promoter activity inhibition. TRM-6 cells (human fetal islet line), insulin promoter-eGFP reporter, imaging; reporter expression induced with tamoxifen. inhibition, % at 2 µM. hit rate 0.9% among 130,000;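 active = inhibition above the mean plus 3 SD, with well images judged a real hit on visual review, cut at about 60% in these data, passing the limit was not always enough; inconclusive = inhibition over the cutoff but images rejected on review; inactive = inhibition not above the cutoff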
# HSV augment: HSV replication enhancement; hit rate 0.005% among 220,000; HSV replication augmentation in cells, fold increase; maximum fold increase;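 active = peak rise of 1.5-fold or more in the series; inconclusive = self-fluorescent or not available for retest; tested in PC3 cells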;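 note: first round at 10 µM; read as green reporter fluorescence; hits show the peak of a series up to 25 µM; 1 = signal of infected wells without compound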
# RGS16-Gao HTS: regulators of human RGS16-Galphao interaction; O15492+P09471; bead-based flow cytometry RGS16-Galphao binding, fluorescence; actives lie on both sides; binding response (% of control), % at 10 µM; hit rate 0.38% among 220,000;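 active = below 25% or above 175%, edge rows of some plates excepted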;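 note: Galphao activated by GDP with aluminum fluoride before binding; 100% = wells without compound and 0% = beads without RGS; some results beyond the cut were filed as inactive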
# Target sequence (O15492 whole entry, looked up): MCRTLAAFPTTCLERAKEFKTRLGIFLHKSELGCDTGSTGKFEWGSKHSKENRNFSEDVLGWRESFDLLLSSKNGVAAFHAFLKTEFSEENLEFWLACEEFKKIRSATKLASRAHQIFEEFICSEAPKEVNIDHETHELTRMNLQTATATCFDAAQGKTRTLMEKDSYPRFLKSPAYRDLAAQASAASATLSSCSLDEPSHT
# Target sequence (P09471 whole entry, looked up): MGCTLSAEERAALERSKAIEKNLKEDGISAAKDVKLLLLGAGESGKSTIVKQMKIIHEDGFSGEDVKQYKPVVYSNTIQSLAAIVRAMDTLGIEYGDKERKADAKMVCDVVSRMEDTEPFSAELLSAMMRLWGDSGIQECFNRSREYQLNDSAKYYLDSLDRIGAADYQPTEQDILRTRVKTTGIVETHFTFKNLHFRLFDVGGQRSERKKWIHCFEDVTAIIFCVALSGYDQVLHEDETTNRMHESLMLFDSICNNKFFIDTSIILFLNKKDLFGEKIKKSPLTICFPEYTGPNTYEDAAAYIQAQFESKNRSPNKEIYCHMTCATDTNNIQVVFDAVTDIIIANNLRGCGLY
# Insulin prom inh cell count: also measured in Insulin prom inh; calls as there; normalized cell count, %; measured here: cell count, toxicity; reference of the scale not given here;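 cells exposed to compound for 48 h; stained nuclei by imaging scaled within each plate; lower means fewer cells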
# HSV augment primary fold: also measured in HSV augment; calls as there; fold increase; compound at 10 µM; measured here: primary screen fold increase 10 uM; tested in PC3 cells;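 GFP signal in the first replicate; 1 = infected wells without compound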
# An asterisk follows results filed as active; i = inactive; ? = inconclusive; / = no result given. Compounds as they come; about 1.3% have a hit in one of these screens.
cpd	mol	GALR2 ag	PKD1 kinase inh	Insulin prom inh	Insulin prom inh cell count	HSV augment	HSV augment primary fold	RGS16-Gao HTS
1	CCOc1ccccc1NS(=O)(=O)N(C)C	-1.7	0	7	131	i	1.1	-853
2	CCN1C(=O)CC(C(=O)NC)SC1=Nc1cc(Cl)c(O)c(Cl)c1 (stereo not drawn)	-2.9	5	/	/	i	0.77	103
3	Nc1ccc2nc(Cc3ccccc3)[nH]c2c1	/	/	/	/	i	0.84	104
4	O=C(Nc1ccccc1OC(F)F)C1CCCN1C(=O)c1cccs1 (stereo not drawn)	0.7	-14	-14	149	i	0.96	110
5	NC(=O)COC(=O)c1oc2ccccc2c1CSc1ccc(Cl)cc1	-0.9	-3	-3	91	i	1.1	92
6	CCCOc1ccc(N2C(=O)C3ON(c4ccccc4)C(CCC)C3C2=O)cc1 (stereo not drawn)	-1.2	-3	-19	91	i	1.1	97
7	O=C(CNC(=O)c1ccccc1)OC(C(=O)Nc1cc(C(F)(F)F)ccc1Cl)c1ccccc1 (stereo not drawn)	-1.8	-7	-57	87	i	1.1	101
8	Nc1ccc2c(c1)nnn2-c1ccccc1	/	/	/	/	i	1.1	100
9	CCCn1c(C)cc(=O)c2cc(NC(=O)c3ccccn3)ccc21	0.3	-3	/	/	i	0.88	96
10	CCN(CC)c1nc(C#N)cc(-c2ccc(OC)cc2)n1	0.8	0	30	60	i	0.85	90
11	Cc1ccn2c(NC3CCCCC3)c(C)nc2c1	-3.1	-13	/	/	i	0.89	103
12	CCn1c(=O)c(C(=O)NNS(=O)(=O)c2ccc(Cl)cc2)c(O)c2ccccc21	-0.3	-1	/	/	i	0.97	96
13	COc1cc(/C=N/Nc2nc3ccccc3[nH]c2=O)ccc1O	/	0	/	/	i	1.1	100
14	Cc1cccc(N2CCc3c2nc2ccc(Br)cc2c3N)c1	-1.2	-2	/	/	i	0.87	90
15	Cc1cc(Nc2ccc3ccccc3c2)n2ncnc2n1	-0.3	-7	/	/	i	1	103
16	O=C(CC1C(=O)NCCN1C(=O)Nc1ccccc1)Nc1cc(Cl)ccc1Cl (stereo not drawn)	/	/	/	/	i	0.9	100
17	O=C(Nc1cccc2c1C(=O)NC2=O)c1ccc(S(=O)(=O)N2CCCC2)cc1	-0.8	14	0	76	i	0.94	60
18	Cc1cc(=O)[nH]c(N/N=C/c2cccs2)n1	0.5	-2	-117	125	i	1	98
19	C=CCn1c(SCC(=O)Nc2sccc2C#N)nc2sc(C)c(C)c2c1=O	0.0	-3	6	112	?	/	93
20	CCOC(=O)Cn1c2ccccc2n2nc(CCC(=O)O)c(=O)nc12	/	-7	/	/	i	0.97	100
21	COc1ccc(-c2c(C#N)c(C)nc3c2C(=O)c2ccccc2-3)cc1	-0.1	-3	89*	80*	i	0.82	100
22	CCN(CC)C(=O)Cn1cnc2c1c(=O)n(C)c(=O)n2C	0.6	-1	-47	78	i	0.8	54
23	O=c1[nH]c(SCc2ccccc2Cl)nc2c1CCCC2	0.0	2	37	176	i	0.91	103
24	O=c1ccn(-c2cccc(C(F)(F)F)c2)nc1-c1ccn(-c2ccccc2F)n1	-2.1	1	3	124	i	0.99	102
25	COc1ccc(C(=O)N/N=C/c2cc3ccccc3[nH]c2=S)cc1	-2.3	0	46	123	i	1	98
26	Cc1ccc(S(=O)(=O)N2CCOCC2)cc1NC(=O)CNCc1cccnc1	/	/	/	/	i	1	101
27	CCC(C)NC(=O)c1ccccc1NC(=O)c1ccc(CSc2ccc(C)cc2)cc1 (stereo not drawn)	-1.8	2	-50	100	i	0.93	98
28	C/C(=N/NC(=O)C1CCCCC1)c1ccc([N+](=O)[O-])cc1	-1.0	-9	-197	132	i	0.84	100
29	O=C(NCc1ccccc1Cl)C1CCCO1 (stereo not drawn)	/	-3	/	/	i	1	104
30	CCOC(=O)c1sc2ncn(C(C)C(=O)OC)c(=O)c2c1C (stereo not drawn)	-0.7	-5	-28	50	i	0.91	105
31	CC1CCCCN1C(=O)CSc1nnc(CSc2ncccn2)n1C (stereo not drawn)	-1.3	-2	-68	151	i	1.1	96
32	O=C(Cn1c(=O)oc2cc(S(=O)(=O)NCc3ccccc3)ccc21)N1CCCC1	/	/	/	/	i	1	108
33	C=C1C2(C(=O)Nc3nccs3)CCC(C2)C1(C)C (stereo not drawn)	0.0	-4	-45	108	i	0.86	110
34	O=C(CSc1nc(O)cc(=O)n1-c1ccccc1)Nc1ccc(Br)cn1	/	-6	/	/	i	1.1	99
35	CCCOC(=O)c1c(NC(=O)c2cnn3c2NC(c2ccccc2)CC3C(F)(F)F)sc2c1CCCC2 (stereo not drawn)	0.5	-7	/	/	i	1.1	105
36	O=C(c1ccccc1)c1ccc(OCC(O)CN2CCN(S(=O)(=O)N3CCCCC3)CC2)cc1 (stereo not drawn)	-3.0	2	10	111	i	0.97	107
37	COc1ccc(NC(=O)CSc2nnc(NC(=O)CN3CCOCC3)s2)cc1	/	3	/	/	i	0.94	102
38	O=C(Nc1sc2c(c1-c1nc3ccccc3[nH]1)CCCC2)C1CC1	2.8	8	35	48	i	0.94	94
39	CC(C)OC(=O)c1cccc(NC(=O)CSc2nnc(N)s2)c1	/	3	15	64	/	/	106
40	CCOC(=O)C1CCN(c2c(NCc3ccc(C(=O)NC4CCCC4)cc3)c(=O)c2=O)CC1	-0.7	0	/	/	i	0.96	91
41	CSCCC1NC(=O)N(CC(=O)Nc2ccc(Br)cc2Br)C1=O (stereo not drawn)	/	/	/	/	i	1.1	112
42	Cc1ccccc1NC(=O)c1ccc(-c2ccc(Cl)cc2Cl)o1	-1.6	-6	15	143	i	0.96	114
43	S=C(Nc1ccc(Cl)cc1)NC1CC2CCCC(C1)N2C1CCCC1 (stereo not drawn)	-0.4	0	-10	71	i	0.92	102
44	CC1=NN(C(=O)CCc2ccc3c(c2)OCO3)C(O)(C(F)(F)F)C1 (stereo not drawn)	/	-3	-10	60	i	0.95	102
45	CN(C)S(=O)(=O)c1ccc(N2C(=O)CC2(/C=C/c2ccccc2)C(=O)NC2CCCC2)cc1 (stereo not drawn)	-1.3	-4	/	/	i	0.91	108
46	O=C(Nc1ccccc1)C1CC(=O)n2ncnc2N1 (stereo not drawn)	-2.1	9	-42	100	i	1.4	104
47	COc1ccccc1NC(=O)c1cc2ccccc2o1	-2.3	-2	51	92	i	0.98	96
48	COc1ccc(-c2nc3n(n2)C(c2ccccc2)C2=C(CCCC2=O)N3)cc1OC (stereo not drawn)	-0.3	1	-9	73	i	0.85	72
49	Fc1ccccc1NC(=S)N(CCCN1CCOCC1)Cc1cccnc1	/	4	/	/	i	0.99	101
50	O=C(O)c1cccnc1SC1CC(=O)N(c2cccc3ccccc23)C1=O (stereo not drawn)	/	-5	33	112	i	1	94

# (further entries)
cpd	mol	GALR2 ag	PKD1 kinase inh	Insulin prom inh	Insulin prom inh cell count	HSV augment	HSV augment primary fold	RGS16-Gao HTS
51	Cc1nc2c(-c3ccc(F)cc3)c(C)nn2c(C)c1CCC(=O)N1CCN(c2ccccn2)CC1	0.0	-10	/	/	i	1.2	104
52	CCOc1ccc(S(=O)(=O)NCCN2CCOCC2)c2ccccc12	0.4	-5	/	/	/	/	119
53	CCN1CCN(C(=O)C(C)Nc2cc(Cl)c(OC)cc2OC)CC1 (stereo not drawn)	/	-1	/	/	i	1.1	100
54	CCCOc1ccc(N2CC(C(=O)Nc3ccccc3C(=O)NC)CC2=O)cc1 (stereo not drawn)	/	-5	-83	107	i	0.98	109
55	O=C(CCCc1ccccc1)Nc1nnc(C(F)(F)F)s1	/	-7	/	/	i	0.78	102
56	Cc1onc(-c2c(F)cccc2Cl)c1C(=O)Nc1ccc(S(=O)(=O)Nc2ncccn2)cc1	-1.3	-4	0	109	i	0.99	100
57	CCOC(=O)N1CCN(C(=O)C(c2ccccc2)c2ccccc2)CC1	-0.7	-1	-400	60	i	0.88	100
58	COc1cccc(N2C(=O)C(O)=C(C(C)=O)C2c2ccc(OC)c(OC)c2)c1 (stereo not drawn)	-0.7	9	23	199	i	0.81	101
59	O=c1oc(-c2ccccc2NS(=O)(=O)c2ccccc2)nc2ccccc12	-0.8	-2	-34	99	i	1	98
60	CC(C)(C)NC(=O)NC(=O)COC(=O)c1cc[n+]([O-])cc1	/	-1	-33	93	i	0.92	232

# 4 entries out of the list, arranged by length of the SMILES, largest number first:
cpd	mol	GALR2 ag	PKD1 kinase inh	Insulin prom inh	Insulin prom inh cell count	HSV augment	HSV augment primary fold	RGS16-Gao HTS
51	Cc1nc2c(-c3ccc(F)cc3)c(C)nn2c(C)c1CCC(=O)N1CCN(c2ccccn2)CC1	0.0	-10	/	/	i	1.2	104
60	CC(C)(C)NC(=O)NC(=O)COC(=O)c1cc[n+]([O-])cc1	/	-1	-33	93	i	0.92	232
53	CCN1CCN(C(=O)C(C)Nc2cc(Cl)c(OC)cc2OC)CC1 (stereo not drawn)	/	-1	/	/	i	1.1	100
55	O=C(CCCc1ccccc1)Nc1nnc(C(F)(F)F)s1	/	-7	/	/	i	0.78	102

# Going on with the list:
cpd	mol	GALR2 ag	PKD1 kinase inh	Insulin prom inh	Insulin prom inh cell count	HSV augment	HSV augment primary fold	RGS16-Gao HTS
61	COc1cc2c(cc1OC)C(c1cccc(C)c1)CC(=O)N2 (stereo not drawn)	/	5	/	/	i	0.97	109
62	Cc1ccc(-n2nc(C)c(=O)c(-c3ccccc3)c2NC(=O)c2cccs2)cc1	/	/	/	/	i	0.91	97
63	O=C(NCCCN1CCOCC1)c1ccccc1NS(=O)(=O)c1ccc(F)cc1	/	4	/	/	i	1.1	98
64	Cc1ccccc1OCCCC(=O)Nc1ccc2c(c1)OCO2	-2.8	-11	7	162	i	1.1	98
65	Cc1ccc(S(=O)(=O)CC(=O)N2CCOCC2)cc1	/	-9	/	/	i	0.95	99
66	CC(=O)n1cc(C(C[N+](=O)[O-])SCCN)c2ccccc21 (stereo not drawn)	-2.2	-4	26	78	i	0.99	95
67	CCCC1(C(=O)OCC)NC(c2ccco2)C2C(=O)N(C)C(=O)C21 (stereo not drawn)	/	-10	-50	100	i	1	106
68	Cc1ccc(C(=O)Nc2nnc(-c3ccncc3)s2)o1	-0.9	-4	-4	116	i	1	100
69	CCN1CCN(CCNC(=O)C2CCN(Cc3nc(-c4ccc(Cl)cc4)oc3C)CC2)CC1	-0.9	-9	/	/	/	/	102
70	Cc1cc(C(=O)N/N=C/c2cccn2C)n[nH]1	-0.3	-2	-3	151	i	0.94	102
71	Cc1cccc(-n2cc[nH]c2=S)c1C	0.1	-1	/	/	i	1	72
72	COC(=O)c1ccc(CNC(=O)CN(CCC(C)C)S(=O)(=O)c2ccc3c(c2)OCCO3)cc1	-0.7	-4	-11	105	i	1.1	104
73	O=C(COC(=O)CCC(=O)c1ccc(F)cc1)Nc1cccc(S(=O)(=O)N2CCCC2)c1	/	/	/	/	i	1	104
74	O=C1CN(c2ccc(Cl)cc2)C(=O)CN1NC(=S)Nc1ccc(Cl)cc1	1.1	1	/	/	i	0.95	103
75	CC(=O)c1nc2ccccc2n1S(=O)(=O)c1ccc(C)cc1	0.1	7	/	/	i	1.1	107
76	COc1ccc(C)cc1C(=O)CCC(=O)Nc1ccccc1N1CCOCC1	-0.5	-19	8	99	i	0.5	135
77	CCOc1cc(C(=O)NCc2ccc(C)cc2)ccc1OCC(=O)N1CCOCC1	/	-5	42	105	i	0.92	102
78	CCOC(=O)C1CCN(C(=O)c2cc3cc(Br)ccc3oc2=O)CC1	/	-3	/	/	i	0.97	100
79	CC1=C(C(=O)OCc2ccccc2)C(/C=C/c2ccccc2)NC(=S)N1 (stereo not drawn)	0.0	0	/	/	i	0.9	101
80	COc1ccc(C)cc1Nc1cc(C)nc2nc(C)nn12	-1.1	-3	/	/	i	1.2	102
81	CC(C)(C)NC(=O)CN(Cc1cccs1)C(=O)CN1C(=O)C(=O)c2ccccc21	/	2	/	/	i	1	100
82	N#Cc1cc2c(nc1SCC1COc3ccccc3O1)CCC2 (stereo not drawn)	-0.9	-13	-11	105	i	0.91	106
83	COc1ccc(CN(C(=S)Nc2ccccc2)C2CC(=O)N(c3ccc(Cl)cc3)C2=O)cc1 (stereo not drawn)	-3.4	8	/	/	i	0.89	95
84	CC(=O)Nc1ccc(NC(=O)CSc2ccc([N+](=O)[O-])cn2)cc1	/	/	/	/	i	0.86	108
85	CC(=O)N1CCc2cc(Br)cc(S(=O)(=O)N3CCN(c4ccccn4)CC3)c21	-2.5	3	25	131	/	/	/
86	N#CC(C#N)=C1NC2(CCCCC2)Cc2ccccc21	/	/	/	/	i	1.1	96
87	CC(C)NC(=S)N/N=C/c1ccc(C(C)(C)C)cc1	/	12	17	98	i	0.92	102
88	O=C(O)CSCNC(=O)C12CC3CC(CC(C3)C1)C2	-3.1	-6	0	113	i	0.88	92

# Source: PubChem (several laboratories)
